High-throughput results: PubChem BioAssay, several laboratories
Rce1 inh = yeast Rce1p protease inhibitors, primary screen, biochemical, fluorescence, cell-free homogeneous; calls only; AID 2563, 2010; hit rate 0.27% among 290,000; yeast membranes, quenched prenylated peptide cleavage fluorescence; CAAX prenyl protease 2 (Saccharomyces cerevisiae (strain ATCC 204508 / S288c)), Q03530;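 active means fall in fluorescence gain of 50% or more versus controls, with final raw signal at or below 3038400; inconclusive means same 50% fall but final raw signal above 3038400; inactive means fall in fluorescence gain under 50%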;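 further: plate controls were neutral control wells for no effect and wells lacking membranes for full effect; tested at 10 µM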
Target sequence (Q03530 whole entry, looked up): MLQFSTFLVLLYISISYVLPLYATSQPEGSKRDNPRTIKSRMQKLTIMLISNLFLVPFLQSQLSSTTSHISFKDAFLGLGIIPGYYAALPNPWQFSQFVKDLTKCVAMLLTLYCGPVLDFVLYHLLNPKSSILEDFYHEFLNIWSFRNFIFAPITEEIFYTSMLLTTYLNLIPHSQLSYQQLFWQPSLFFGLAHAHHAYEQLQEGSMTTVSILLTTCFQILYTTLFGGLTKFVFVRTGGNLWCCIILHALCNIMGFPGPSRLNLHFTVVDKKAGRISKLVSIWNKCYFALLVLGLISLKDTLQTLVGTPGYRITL
MT1-MMP act inh = blockers of MT1-MMP proenzyme processing, primary screen, HT1080 RFP-PRO-GFP cells, GFP/RFP fluorescence; Matrix metalloproteinase-14 (Homo sapiens), P50281; GFP/RFP ratio fluorescence, overnight; percent of plate control window, DMSO zero; GFP/RFP ratio change, % at 20 µM; hit rate 0.061% among 360,000; AID 651647, 2012;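 active means GFP/RFP ratio change of at least 30% with cell ATP level not reduced by more than half and red fluorescence within 50% of control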; further: strong numbers were not always called active
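Material: RFP-PRO-GFP reporter HT1080 cells. Dosing: single-point 20 µM compound, 1% DMSO. Controls: DMSO and RFP-L50D-GFP cell wells. Timing: cells overnight before dosing, compound overnight, 37 °C, 5% CO2. Measure: GFP/RFP fluorescence ratio.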
CSC inhib = cancer stem cell viability inhibitors, primary screen, luminescence; hit rate 1.1% among 300,000; inhibition, % at 7.5 µM; cancer stem cell-like cells viability;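 active means mean at 75% or more and at least half the replicates too; inconclusive means mean and replicates disagree; tested in HMLE shEcad cells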;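 further: 0% = median of negative and 100% = median of positive control wells; the first replicate is given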
HIV Env fusion = inhibitors of HIV-1 Env-driven cell-cell fusion, primary screen, HeLa-JRFL effector, CEM21 target cells, luciferase; inhibition, % at 12.3 µM; hit rate 1.1% among 360,000;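 active means mean replicate inhibition score of at least 50 and every replicate individually at or above 50; inconclusive means only one of the two criteria met; inactive means mean below 50 and not all replicates reaching 50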;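 further: 0% = plate neutral controls and 100% = maraviroc near 300 nM; one replicate is shown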
eIF4H FP inh = human eIF4H binding inhibitors, primary screen, translation initiation inhibitor project, biochemical, uHTS, fluorescence polarization; Eukaryotic translation initiation factor 4H (Homo sapiens), Q15056; eIF4H fluorescence polarization binding assay; inhibition, % at 35 µM; hit rate 0.94% among 290,000;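 active means 50% or more with normal probe brightness, or confirmed in later tests; inconclusive means above 50% with abnormal brightness, or retests that disagree; inactive means below 50% or failed in later tests; about a fifth of its hits are not listed in these tables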;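 further: calls also rest on retests at 20 µM and on dose response follow-up; 0% = protein and probe with vehicle and 100% = probe without protein; strong numbers were not always called active; many hits fall short of the cut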
PABP polyA inh = PABP poly(A) RNA binding inhibitors, primary screen, biochemical, fluorescence polarization, uHTS. hit rate 1% among 290,000. inhibition, % at 35 µM;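 active means 50% or more with normal probe brightness, or confirmed in later tests; inconclusive means above 50% with abnormal brightness, or retests that disagree; inactive means below 50% or failed in later tests; about a fifth of its hits are not listed in these tables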;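 further: calls also rest on retests at 20 µM and on dose response follow-up; controls were probe without protein and protein plus probe with vehicle; some compounds called inactive have numbers as strong as hits; many hits fall short of the cut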
UUG fidelity = modulators of yeast start codon fidelity, primary screen, whole organism, S. cerevisiae, single point, plate reader | hit rate 0.13% among 350,000 | activity score, % at 18.7 µM | S. cerevisiae UUG-firefly luciferase reporter, luminescence/redox ratio;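 active means replicate mean at a twofold rise or more, about +100% in these data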;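 further: firefly luciferase made from a UUG start codon reports start codon fidelity; reporter light over untreated wells divided by growth signal over untreated wells; some hits fall short of that in this replicate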
eIF4H FP inh retest = also measured in eIF4H FP inh; calls as there; inhibition, %; compound at 20 µM; confirmation average;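 mean of two retest wells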
PABP polyA inh retest = second read-out of PABP polyA inh, no call of its own (marks repeat the call); inhibition, %; compound at 20 µM; confirmation repeats;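 mean of two retest wells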
MT1-MMP act inh RFP = recorded beside MT1-MMP act inh, whose call it bears; RFP signal change, %; measured here: RFP expression control read;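 0 = vehicle wells; hits needed this value within 50% of zero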
* = called active by the depositor; i = inactive; ? = inconclusive; . = not tested or not shown. An unsorted share of the library. Share with any hit: about 2.9%.

SMILES | Rce1 inh | MT1-MMP act inh | MT1-MMP act inh RFP | CSC inhib | HIV Env fusion | eIF4H FP inh | PABP polyA inh | UUG fidelity | others
COc1ccc(CCNC(=O)C2CC3Cn4c(nc5ccccc54)C3N2C)cc1 (stereo not given) | i | -3 | 1 | 9 | -33 | 3 | -15 | -27
CN(C(=O)c1ccco1)c1nc(-c2ccc(F)cc2)cs1 | . | 0 | 0 | -5 | -65 | 3 | 4 | -20
Cc1cccc(CSc2nc3[nH]ncc3c(=O)[nH]2)c1 | i | 35* | 31* | 12 | 1 | -10 | 3 | .
O=C(N/N=C\c1ccc[nH]1)C1COc2ccccc2O1 (stereo not given) | i | 6 | 1 | . | -12 | -5 | 2 | -16
Cc1sc2nc(CN3CCOCC3)nc(Cl)c2c1C | i | 1 | 1 | 0 | 4 | -9 | 0 | .
O=C(CN1CCN(C(=O)c2c(F)cccc2F)CC1)Nc1ccccc1F | . | -3 | -3 | -8 | . | -4 | 10 | -15
O=C(N/N=C\CCc1ccccc1)c1ccco1 | i | -3 | 1 | 11 | 6 | -2 | 17 | .
COc1cc(/C=C/[N+](=O)[O-])ccc1OC(=O)c1cc2ccccc2oc1=O | . | -1 | -1 | 51 | 16 | 5 | 7 | -18
Cc1ccc(S(=O)(=O)NC(C)(C)CN2CCNCC2)cc1 | i | -1 | -5 | . | 5 | -2 | 4 | 0
COCc1cc(C)nc(SCC[N+](C)(C)CC(=O)Nc2cccc(C)c2)c1C#N | i | 7 | 8 | -16 | -14 | -4 | -10 | .
CC(=O)c1ccc(CCCCc2ccc(C(C)=O)cc2)cc1 | . | 3 | -5 | . | 36 | . | . | -15
Cc1ccn(CCC(=O)NC2CCCc3c2cnn3-c2cccc(C)c2C)n1 (stereo not given) | i | 5 | -5 | -7 | -4 | 1 | -2 | -8
CC1CCN(C(=O)CC(NC(=O)c2ccccc2Cl)c2ccccc2)CC1 (stereo not given) | i | 2 | 1 | 5 | -3 | -3 | -2 | -6
COc1cccc(CNCCc2c[nH]c3ccccc23)c1OCc1ccc(F)cc1 | i | -3 | -7 | 15 | . | -2 | -10 | -7
O=C(CCS(=O)(=O)c1ccc(F)cc1)Nc1nnc(-c2ccc(F)cc2)o1 | i | 2 | 5 | 24 | -6 | . | . | .
CCn1ncc([N+](=O)[O-])c1C(=O)NC1CCCCC1 | i | -1 | 3 | -10 | 2 | -6 | 13 | .
COc1ccccc1N1C(=O)S/C(=C\c2ccc(C)s2)C1=O | i | -33 | -1 | -5 | -43 | ? | 39 | -18
Cc1ccc(-n2ncc3c(NCCCn4ccnc4)ncnc32)c(C)c1 | i | -3 | 3 | 2 | 35 | -6 | -2 | -22
CC(OC(=O)CCCC(=O)Nc1ccccc1)C(=O)c1ccccc1 (stereo not given) | i | 1 | 1 | -6 | -5 | 14 | 5 | -11
O=C(CN1C(=O)C(=O)N(C2CCCC2)C1=O)Nc1ccc(Cl)cc1C(F)(F)F | . | 1 | 2 | -4 | -10 | . | . | -20
Cc1c(OC(C(=O)O)c2ccccc2)ccc2c(-c3ccccc3)cc(=O)oc12 (stereo not given) | i | -2 | -2 | -12 | -35 | -1 | -4 | .
FC(F)(F)c1cccc(NC(=S)Nc2ccc(Cl)cc2Cl)c1 | i | 1 | 1 | 65 | . | 1 | 3 | -27
COc1ccc(C(=O)N2CCN(c3ccc(C)c(C)c3)CC2)cc1OC | i | 4 | 0 | -26 | 12 | -4 | -4 | -2
CCC1CO/C(=C(\C(Cl)=C(Cl)Cl)[N+](=O)[O-])N1 (stereo not given) | i | -4 | -1 | -3 | -6 | -1 | -7 | .
CC(=O)Oc1ccc(-c2nc3c(C)cccc3c(=O)o2)cc1 | i | 0 | 3 | -2 | 1 | -7 | 11 | -11
NC(=O)c1ccsc1NC(=O)COC(=O)c1cc(=O)[nH]c2ccccc12 | i | -3 | 2 | -3 | -12 | . | . | .
COc1cccc(S(=O)(=O)Nc2ccc3c(c2)[C@H]2C[C@H](CC(=O)N[C@@H](C)c4ccccc4)O[C@H](CO)[C@H]2O3)c1 | . | -2 | -2 | . | -53 | . | . | -5
COc1ccccc1C(=O)NC(CCSC)C(=O)OC(C)C(=O)NC1CC1 (stereo not given) | i | 0 | 1 | -9 | -13 | . | . | 5
CCOC(=O)c1cccc(C(=O)Nc2nc3ccc(OC)cc3s2)n1 | i | 6 | 0 | 6 | -74 | 5 | 0 | .
CN1/C(=C/C(=O)COC(=O)C2COc3ccccc3O2)C(C)(C)c2ccccc21 (stereo not given) | . | 4 | 4 | . | -14 | . | . | -7

An excerpt from above in order of count of non-hydrogen atoms, falling.
SMILES | Rce1 inh | MT1-MMP act inh | MT1-MMP act inh RFP | CSC inhib | HIV Env fusion | eIF4H FP inh | PABP polyA inh | UUG fidelity | others
COc1cccc(S(=O)(=O)Nc2ccc3c(c2)[C@H]2C[C@H](CC(=O)N[C@@H](C)c4ccccc4)O[C@H](CO)[C@H]2O3)c1 | . | -2 | -2 | . | -53 | . | . | -5
COc1ccccc1C(=O)NC(CCSC)C(=O)OC(C)C(=O)NC1CC1 (stereo not given) | i | 0 | 1 | -9 | -13 | . | . | 5
COc1ccccc1N1C(=O)S/C(=C\c2ccc(C)s2)C1=O | i | -33 | -1 | -5 | -43 | ? | 39 | -18

Next part.
SMILES | Rce1 inh | MT1-MMP act inh | MT1-MMP act inh RFP | CSC inhib | HIV Env fusion | eIF4H FP inh | PABP polyA inh | UUG fidelity | others
COc1cc(-c2noc(C)c2/C=C/c2cccc([N+](=O)[O-])c2)cc(OC)c1OC | i | 12 | -2 | 64 | -51 | -8 | -12 | -18
CCC(C)NC(=O)C1=C(C)C(=O)OC12CCC(C)CC2 (stereo not given) | i | 5 | 5 | 4 | -22 | 11 | -1 | -8
O=C1/C(=C/c2ccccc2)CCCc2ccccc21 | . | 0 | -6 | 15 | -54 | -4 | -4 | .
Cc1cc(C(=O)NNC(=O)C(C)(C)Oc2ccc(Cl)cc2)c(C)o1 | . | 1 | -3 | -4 | . | . | . | -11
Cc1nc(SCC(=O)NCc2ccco2)[nH]c(=O)c1C | i | 3 | -3 | -7 | . | 3 | 12 | -1
CC(C)(C)NC(=O)c1ccc2c(c1)N(CC(=O)NC1CCCC1)C(=O)C(C)(C)O2 | i | -1 | 2 | . | 7 | -12 | 4 | -11
CCCCNC(=O)c1ccc(S(=O)(=O)c2ccc(Cl)cc2)c(NC(C)=O)c1 | i | -3 | 1 | . | -40 | 7 | -7 | -10
O=C(CS(=O)(=O)c1ccc(F)cc1)Nc1nnc(-c2ccccc2Cl)o1 | i | 0 | 3 | 5 | -28 | . | . | -25
CC1(OC(=O)C2CCCC2)C(=O)C=C2C=C(c3ccsc3)N(C3CC3)C=C2C1=O (stereo not given) | i | -3 | 8 | 2 | . | 81 | 38 | -20 | eIF4H FP inh retest=28;PABP polyA inh retest=45
CC12CCC(C(=O)n3c1nc1ccccc13)C2(C)C (stereo not given) | i | 13 | 6 | 68 | . | 4 | -11 | -13
CCCOC(=O)c1cc(-c2ccc(/C=C3/C(=O)N(C)C(=O)C(C#N)=C3C)o2)ccc1Cl | . | -33 | 5 | 13 | . | . | . | -11
COc1ccc(CNc2nc3nc(C)c(Cl)c(C)n3n2)cc1OC | i | 13 | 3 | 0 | -17 | . | . | -5
CCCC1NC(=O)c2cc3ccccc3cc2-n2c1nc1ccc(F)cc1c2=O (stereo not given) | . | -1 | -3 | . | -35 | . | . | -12
CC(O)CNc1nc2sc3c(c2c(=O)n1Cc1ccco1)CCCCC3 (stereo not given) | i | 6 | -2 | 57 | 4 | 0 | 13 | .
Cc1nn(-c2nnc(C)c(=O)[nH]2)c(C)c1SCC(=O)Nc1ccc(C(C)C)cc1 | i | 6 | 3 | 9 | . | 4 | -4 | .
Cc1ccccc1N1CCN(C(=O)c2cc(-c3ccccc3)nc3c2cnn3C(C)C)CC1 | . | 1 | 3 | . | -17 | . | . | -5
CCc1cccc(CC)c1NC(=O)COC(=O)C1(c2ccc(Cl)cc2)CCCC1 | i | -10 | -7 | -7 | . | -1 | 11 | -1
O=C(c1cnc2ccccc2n1)N1CCN(c2ccc(C(F)(F)F)cn2)CC1 | i | -1 | 0 | -1 | -4 | -10 | -4 | .
Cc1ccc(O)c(N=Nc2ccccc2)n1 | i | 5 | 2 | -16 | -24 | . | . | 2
COc1ccc(-n2c(Cc3cccn3C)nnc2SCC(=O)Nc2ccc(C(C)=O)cc2)cc1 | i | 1 | -1 | -4 | 1 | -1 | -1 | -15
COc1cc(/C=N/Nc2nc3c(c(=O)n(C)c(=O)n3C)n2Cc2ccccc2)ccc1OC(=O)c1ccco1 | i | 17 | -15 | -4 | . | -8 | 15 | -8
CCOc1ccc(CN2CCN(Cc3ccon3)CC2CCO)cc1 (stereo not given) | i | -1 | 0 | 8 | 11 | 1 | 3 | -11
COc1ccccc1N1CCN(CC(=O)Nc2ccnn2C2CCCC2)CC1 | . | 7 | -12 | -3 | 9 | . | . | -12
Cc1ccc(CCNC(=O)CCSCc2ccc(Cl)cc2)cc1 | i | 3 | 2 | -7 | 23 | -10 | 6 | .
O=C(NCCCN1CCOCC1)c1cc(Cl)ccc1Cl | i | -1 | 1 | -18 | 0 | 0 | 5 | -8
Cn1c(O)c(N=NC(=O)c2ccccc2O)c2ccccc21 | i | 4 | 0 | 6 | -115 | -5 | 16 | .
Cc1cc(C)c2c(CC(=O)NNC(=O)c3ccccc3)coc2c1 | i | 2 | -1 | -8 | 7 | -2 | 6 | -2
CCn1c(SCc2ccc([N+](=O)[O-])cc2)nnc1C(C)NC(=O)c1ccccc1Br (stereo not given) | i | 1 | -1 | 3 | . | -4 | -4 | -8
Cc1cc(/C(N)=N/OC(=O)c2ccccc2Cl)no1 | i | -3 | -5 | 11 | -16 | -12 | -9 | -64
O=C(CN1C(=O)c2ccccc2S1(=O)=O)NCCSc1ccccc1 | i | 3 | -8 | 3 | -15 | -2 | -4 | -4
CCCCCCCCN=C1NC(=O)CS1 | i | 0 | -7 | . | . | -6 | -2 | .
Cc1ccc(S(=O)(=O)N(C)C)cc1NC(=O)COC(=O)c1ccc2c(=O)n3c(nc2c1)CCC3 | i | 0 | 4 | . | -36 | . | . | .
Cc1cccc2sc(N(CCCN(C)C)C(=O)c3ccc(Cl)s3)nc12 | i | 4 | 2 | 0 | -2 | 4 | -9 | -5
COc1cc(/C=C(/C(=O)c2cccs2)c2nc3ccccc3[nH]2)cc(OC)c1O | i | 7 | -8 | 77* | -80 | 0 | 1 | -5
CC1CN(S(=O)(=O)c2cccc(C(=O)Nc3ccccc3N3CCCCC3)c2)CC(C)O1 (stereo not given) | i | -6 | -14 | 18 | 33 | . | . | -6
CC(C)C[C@H](NC(=O)[C@H](Cc1ccccc1)n1c(=O)[nH]c2ccccc2c1=O)C(=O)N1CCC[C@@H]1C(=O)O | . | 1 | 0 | -10 | . | -2 | -4 | -17
O=C(O)CCSSCCC(=O)O | . | -1 | 9 | -10 | . | . | . | -8
